Assay outcomes: PubChem, National Center for Advancing Translational Sciences (NCATS)
VDR inh: Inhibitors of the vitamin D receptor (VDR): qHTS; Vitamin D3 receptor (Homo sapiens), P11473; VDR-SRC2-3 peptide fluorescence polarization, 2 h; Potency, µM, for the others: max response, negative = inhibition, hits mostly inhibitors; 0.93% of 400,000 active; AID 504847, 2011; active = well fitted inhibition curve with a large enough effect; inconclusive = small, poorly fitted or top-dose-only effect, or another doubt; inactive = no such curve, though single readings can be large or run the other way; also: series mostly up to about 120 µM
Target sequence (P11473 whole entry, looked up): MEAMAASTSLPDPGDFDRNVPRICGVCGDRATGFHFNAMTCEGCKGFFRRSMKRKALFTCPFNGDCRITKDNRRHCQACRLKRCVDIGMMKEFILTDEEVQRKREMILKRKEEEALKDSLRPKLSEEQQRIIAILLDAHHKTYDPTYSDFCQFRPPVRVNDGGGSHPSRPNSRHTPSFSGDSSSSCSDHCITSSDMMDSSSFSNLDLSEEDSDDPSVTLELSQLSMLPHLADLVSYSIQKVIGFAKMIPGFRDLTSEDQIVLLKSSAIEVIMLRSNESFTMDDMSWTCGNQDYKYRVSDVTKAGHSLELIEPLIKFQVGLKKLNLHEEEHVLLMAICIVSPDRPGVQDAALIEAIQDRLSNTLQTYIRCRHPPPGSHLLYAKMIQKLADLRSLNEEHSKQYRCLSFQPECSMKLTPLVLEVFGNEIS
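Compounds are added to VDR with labelled SRC2-3 coactivator peptide and held 2 h at room temperature. Inhibition of the VDR–peptide interaction is then read as a change in fluorescence polarization.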
An asterisk follows results filed as active; ? = inconclusive; & = joins results of further samples. % is scaled to controls: 0 for no effect and ±100 for the full control effect; potency is read from the fitted curve at half-maximal effect. This is a subset; the hit share may differ from the screen's.

SMILES	VDR inh
CS(=O)(=O)N(Cc1ccc(C(=O)NC2CCCCC2O)cc1)c1ccccc1 (configuration not stated)	4%
Cc1ccc(-c2ccc(=O)n(CC(=O)Nc3ccc4c(c3)OCCO4)n2)cc1	-7%
Fc1ccc(-n2cnnn2)c(F)c1	9%
COC(=O)c1cc(NS(=O)(=O)c2ccc(C)c3ccccc23)ccc1N1CCOCC1	-5%
COc1ccccc1C(=O)NNC(=O)C(=O)Nc1cccc(Cl)c1C	-8%
COc1cccc(CNC(=O)CCc2c(C)c3cc4c(C)coc4cc3oc2=O)c1	12%
Cc1ccc(C(=O)/C=C/c2ccc3c(c2)OCCO3)c(O)c1	?
CSc1nc2nc3c(cc2c(=O)n1-c1ccccc1)COC(C)(C)C3	2%
CCOc1ccc(-n2nnnc2SCC(=O)N2CCOCC2)cc1	-2%
CCN(c1ccc(OC)cc1)S(=O)(=O)c1nnc(NC(=O)COc2ccc(C)cc2)s1	-9%
COc1ccc(OC)c(NC(=O)C(=O)NNC(=O)C23CC4CC(CC(C4)C2)C3)c1	6%
COC(=O)c1cc(COC(=O)CNC(=O)c2ccc(Br)cc2)oc1C	-5%
COc1ccc(OC)c(C(=O)CN2C(=O)N(c3ccc(C)cc3)S(=O)(=O)c3ccccc32)c1	7%
OCCc1c[nH]c2ccc(OCc3ccccc3)cc12	-6%
CNS(=O)(=O)c1cc(NC(C)=O)c(C)cc1C	-8%
O=S(=O)(Nc1cccc2cccnc12)c1cccc2cccnc12	-5%
CCCOc1ccc(C(=O)CCC(=O)OCC(=O)N2CC(=O)Nc3ccccc32)cc1	-8%
COc1ccc(/C=N/NC(=O)CN2CCN(Cc3ccccc3)CC2)cc1Br	24%
Cc1nnc(SCC(=O)Nc2ccc(S(=O)(=O)N3CCCCC3)cc2)s1	14%
CC(NC(=O)c1cccnc1)C(=O)N1CCCCC1 (configuration not stated)	-10%
CN(C)c1nc(N)c([N+](=O)[O-])c(NCC2CCCO2)n1 (configuration not stated)	-5%
Cc1c(N(C)S(=O)(=O)c2cccc(C(=O)NC(C)C)c2)c(=O)n(-c2ccccc2)n1C	79µM*
CCn1c(O)c(C=Nc2ccccc2)n(-c2ccccc2)c1=S	-8%
COC(=O)c1sccc1-n1cccc1C(=O)C(=O)N1CC(C)OC(C)C1 (configuration not stated)	6%
CSCC[C@H](NC(=O)[C@H](CC(C)C)NC(=O)[C@@H]1CCCN1C(=O)[C@H](Cc1ccccc1)NC(=O)[C@H](Cc1ccccc1)NC(=O)[C@H](CCC(N)=O)NC(=O)[C@H](CCC(N)=O)NC(=O)[C@@H]1CCCN1C(=O)[C@H](CCCCN)NC(=O)[C@@H]1CCCN1C(=O)[C@@H](N)CCCN=C(N)N)C(N)=O	2%
O=C(CCl)N(c1ccccc1)C1CCCCC1	-11%
CC(C)C(NC(=O)c1ccc2c(c1)OCCO2)c1nc2ccccc2[nH]1 (configuration not stated)	-16%
CC(C)(C)n1nnnc1C(c1ccc(Cl)cc1)N(Cc1cccnc1)Cc1ccco1 (configuration not stated)	-21%
C[C@H](CO)N1C[C@H](C)[C@@H](CN(C)S(=O)(=O)c2ccc(F)cc2)Oc2ccc(NC(=O)C3CC3)cc2C1=O	1%
CCCN1CNc2c(c(=O)[nH]c(=S)n2CCc2cccc(C)c2)C1	16%
OC(CN1CCOCC1)Cn1c2c(c3ccccc31)CCCC2 (configuration not stated)	-24%
Cc1ccc(C)c(-n2c(Cc3cccs3)n[nH]c2=S)c1	11%
CCOC(=O)COc1ccc(CCNC(C)=O)cc1	5%
CC(C)c1c(C(=O)N/N=C/c2cccs2)nnn1-c1nonc1N	-2%
COCC(=O)Nc1c(C(=O)Nc2ccc3c(c2)OCCO3)oc2ccccc12	8%
Cc1cc(C)n(CC(O)Cn2cnc3c2c(=O)n(C)c(=O)n3C)n1 (configuration not stated)	14%
COc1cccc(C(=O)NCC2CCCN(C(=O)c3ccc(C=O)cc3)C2)c1OC (configuration not stated)	5%
CCN(CC)CCN1C(=O)C(=O)/C(=C(/O)c2ccc(F)cc2)C1c1cccnc1 (configuration not stated)	13%
COc1cc(/C=C/C(=O)OCC(=O)NC(=O)NCc2ccco2)ccc1OC(F)F	-4%
CNS(=O)(=O)c1cn(CC(=O)Nc2ccc(C(C)=O)cc2)cc1S(=O)(=O)NC	12%
COc1ccc(/C=C/C(=O)Nc2cccnc2)cc1OC	-3%
CC(=O)C[C@@H](O)CC(=O)[C@@H]1OC(=O)CCCCCc2ccccc21	-1%
CCN(c1ccc(OC)cc1)S(=O)(=O)c1nnc(NC(=O)C2CCCCC2)s1	3%
Cc1ccc2cc(/C=N/NC(=O)[C@H](C)NC(=O)OC(C)(C)C)c(Cl)nc2c1	-6%
C/C=C/COC(=O)c1[nH]c2c(c1C)C(=O)CC(c1ccco1)C2 (configuration not stated)	?
CCN(C(=O)Cn1c(SCC(=O)NCc2ccccc2)nc2ccccc21)c1cccc(C)c1	-6%
O=C(CSC1=Nc2ccccc2C2=NC(Cc3ccccc3)C(=O)N12)Nc1ccccc1 (configuration not stated)	0%
COc1ccc(CNC(=O)c2cnc3sc(N4CCCC4)nn3c2=O)c(OC)c1	-3%
CCOc1ccc(OCC)c(S(=O)(=O)NCc2ccccn2)c1	-4%
COc1cccc(CNC(=O)Cc2csc3ccccc23)c1OC	23%
COc1cccc(CNC(=O)C2CCN(S(=O)(=O)c3cccs3)CC2)c1	-12%
CCc1ccc(C(=O)COC(=O)CNC(=O)c2ccco2)cc1	9%
CCN(CC)CCSc1nc2ccc(OC)cc2[nH]1	-5%
Cc1nnc(SCC(=O)Nc2ccc3c(c2)OCO3)s1	22%
O=C(NC1CCCC1)C1CCN(C(=O)Nc2cccc(Cl)c2)CC1	-6%
CC(C)(C)CC(=O)Nc1nnc(SCC(=O)NC2CCCC2)s1	15%
CN1CCN(C(=O)c2ccc(-c3cccs3)s2)CC1	3%
O=CN1CCN(C(=O)c2cc3cc(Cl)ccc3[nH]2)CC1	-7%
COc1ccc(OCC(O)CN2CCN(c3ncccn3)CC2)cc1 (configuration not stated)	-12%
Cc1cc(N2CCOCC2)nc(-c2ccc(Br)cc2)n1	?
Carrying on.
SMILES	VDR inh
COc1ccc(CNC(=O)C2CSC(=O)C2)cc1 (configuration not stated)	-18%
CCOC(=O)c1ccc(NC2=CC(=O)C(=O)c3ccccc32)cc1	-30%
O=C(NCc1noc2ccccc12)N1CCN(c2ccccc2F)CC1	-2%
CCCCCn1c(C)c2c(OCC)cccc(=O)c2c1C	-18%
C/C(=N\NC(=S)NCc1ccccc1)c1ccc(C)o1	-6%
COc1ccc(-n2nnc3c(=O)n(CC(=O)N4CCCC4)cnc32)cc1	-4%
CCN(CC)S(=O)(=O)c1ccc(N2CCOCC2)c(NC(=O)C2CC2)c1	-3%
O=C(Nc1ccc(F)cc1F)c1c(C(F)(F)F)ccnc1Oc1ccc(Cl)cc1	13%
COc1ccc(C(=O)CSc2nnc(CNC(=O)c3ccc(S(=O)(=O)N(C)C)cc3)o2)cc1	9%
O=S(=O)(c1cccs1)N1CCN(S(=O)(=O)c2cccs2)CC1	-12%
CCOc1ccc(-c2cn3c(n2)sc2cc(C(=O)NCCc4ccc(OC)c(OC)c4)ccc23)cc1	-23%
COc1cccc(-c2c(C(=O)N/N=C/c3ccc(C)o3)nnn2-c2nonc2N)c1	-3%
O=C(c1cccc2ccccc12)N1CCN(c2ccccc2F)CC1	14%
O=C(CSc1nnc(SCC(=O)c2ccco2)s1)c1ccco1	-13%
COc1ccc(CN2CCNC(=O)C2CC(=O)NCCc2cnccn2)cc1C (configuration not stated)	-8%
CCN(CCNC(=O)c1ccc(CSc2nc3ccncc3[nH]2)cc1)c1ccccc1	3%
COc1cc(C(CC(=O)N2CCOCC2)c2c(OC)cc(OC)c3ccc(=O)oc23)cc(OC)c1OC (configuration not stated)	-7%
CCOC(=O)c1c(O)c2c(n(Cc3ccco3)c1=O)CCCC2	13%
O=C1NCCN1c1ccc(CN2CCN(C3CCCCC3)C(CCO)C2)cc1 (configuration not stated)	-4%
O=S(=O)(c1ccccc1)N1CCC(O)(CSc2ccccc2)CC1	5%
Cc1c(/C=C/C(=O)c2cccs2)cnn1C	?
C=CCC(NC(=O)c1ccc(C#N)cc1)C(=O)NCCC (configuration not stated)	-16%
COc1ccc(-c2nc(SCC(=O)Nc3ccc4c(c3)OCCO4)c(-c3ccc(F)cc3)[nH]2)cc1OC	2%
Cc1nn2c(=O)cc(COC(=O)COc3ccc(F)cc3)nc2s1	6%
CC1CC(C)CN(C(=O)COC(=O)Cc2ccc(Cl)cc2)C1 (configuration not stated)	11%
O=C(O)c1ccccc1C(=O)Nc1nc(-c2ccc3ccccc3c2)cs1	0%
O=[N+]([O-])c1ccc(-c2ccn[nH]2)o1	-8%
O=C(NCCC(=O)N1CCN(C(=O)c2ccco2)CC1)c1ccc(Br)cc1	-17%
O=C(CCN1C(=O)c2ccc([N+](=O)[O-])cc2C1=O)Nc1ccc(O)cc1C(=O)O	-5%
Oc1ccc(-c2nc3ccccc3nc2-c2ccccc2)cc1	-3%

Three of the entries above in order of their number in VDR inh, low to high.
SMILES	VDR inh
O=C(CCl)N(c1ccccc1)C1CCCCC1	-11%
O=C(NC1CCCC1)C1CCN(C(=O)Nc2cccc(Cl)c2)CC1	-6%
CC1CC(C)CN(C(=O)COC(=O)Cc2ccc(Cl)cc2)C1 (configuration not stated)	11%

Remaining list, next part.
SMILES	VDR inh
CCCCn1c(N)c(N(CC(C)C)C(=O)c2ccc(C)o2)c(=O)[nH]c1=O	6%
CCOc1ccc(CN2CCNC(=O)C2CC(=O)NCCCOc2cccnc2)cc1 (configuration not stated)	-5%
CC1COc2ccccc2N1C(=O)c1ccccc1Cl (configuration not stated)	-1%
Cn1c(=O)[nH]c(=O)c2c1nc1n2CCCN1CCc1ccccc1	-9%
COC(=O)c1cnn2c(C(F)(F)F)cc(-c3ccc(F)cc3)nc12	2%
COc1ccc(C(=O)NC(=S)Nc2cccc(S(=O)(=O)N3CCOCC3)c2)cc1	4%
CCOC(=O)C1(CCc2ccccc2)CCN(Cc2c(O)cccc2OC)CC1	-17%
O=C(Cn1cc(SCc2ccc(C(F)(F)F)cc2)c2ccccc21)N1CCCC1	7%
Oc1c(CN2CCN(c3ccc(F)cc3)CC2)cc(Cl)c2cccnc12	4%
COc1cccc(NC(=O)COC(=O)CCOc2ccccc2OC)c1	-8%
O=C(Nc1cccc(NC(=O)c2ccccc2F)c1)c1ccccc1	-13%&-15%
CN(C)C(=O)c1ccc(NC(=O)c2cncc(Br)c2)cc1	-14%
COC(=O)c1ccc(/C=N/OCC(=O)NC2CCCCCCC2)cc1	-7%
C/C(=N\Nc1nccnc1Cl)c1c(F)c(F)c(F)c(F)c1F	3%
Cc1cccc(N2CCN(C(=O)c3ccc4c(c3)c(C)c(C)n4C)CC2C)c1 (configuration not stated)	-9%&11%

Overlap with the part before: 5 compounds; new compounds follow.
SMILES	VDR inh
O=C(Nc1cccc(NC(=O)c2ccccc2F)c1)c1ccccc1	-13%&-15%
CN(C)C(=O)c1ccc(NC(=O)c2cncc(Br)c2)cc1	-14%
COC(=O)c1ccc(/C=N/OCC(=O)NC2CCCCCCC2)cc1	-7%
C/C(=N\Nc1nccnc1Cl)c1c(F)c(F)c(F)c(F)c1F	3%
Cc1cccc(N2CCN(C(=O)c3ccc4c(c3)c(C)c(C)n4C)CC2C)c1 (configuration not stated)	-9%&11%
Cc1ccccc1C(=O)Oc1cccc(Nc2ncnc3ccccc23)c1	0%
COCCNC(=O)C(c1cccs1)N(Cc1cccs1)C(=O)Cn1nnc2ccccc21 (configuration not stated)	-10%
O=C(NC(=S)Nc1ccc([N+](=O)[O-])cc1O)C1CCCCC1	-15%
Cc1cc(Br)ccc1OCC(=O)NNC(=O)Cc1ccccc1	-2%
COc1ccc(NC(=O)C23CC4CC(C2)CC(n2cnc(Br)n2)(C4)C3)c(OC)c1	-6%
Cc1ccc2c(c1)-c1[nH]c(=S)ncc1CS2	?
Cc1ccc(NC(=O)C(C)OC(=O)/C=C/c2ccccc2)cc1S(=O)(=O)N1CCOCC1 (configuration not stated)	17%
COc1ccnc(N=CNOCc2cccc(C(F)(F)F)c2)c1C#N	4%
CCN(Cc1ccccc1)C(=O)Cn1c(=O)n(-c2ccc(Cl)cc2)c(=O)c2c(C)c(C(=O)N(C)C)sc21	12%
C=CCn1c(SCCCc2ccccc2)nc2c1c(=O)[nH]c(=O)n2C	?
COc1ccc(N2CCN(C(=O)CC(C)S(=O)(=O)c3ccc4c(c3)NC(=O)CO4)CC2)cc1 (configuration not stated)	-21%
OCC1(Cc2ccccc2)CCN(CCCC2CCCC2)CC1	7%
CCCCc1nc2cc(C(=O)N3CCNC(=O)C3)ccc2o1	9%
COc1ccc(CCNC(=O)c2ccc(CNS(=O)(=O)c3cccc(Cl)c3)cc2)cc1OC	-8%
CCOC(=O)[C@@H]1[C@H]2COc3ccccc3[C@@H]2N2C(=O)N(c3ccc(Cl)cc3)C(=O)[C@@]12C	-7%

Taken from above:
VDR inh, Cc1cc(Br)ccc1OCC(=O)NNC(=O)Cc1ccccc1 : -2%
VDR inh, OCC1(Cc2ccccc2)CCN(CCCC2CCCC2)CC1 : 7%
VDR inh, O=C(NC(=S)Nc1ccc([N+](=O)[O-])cc1O)C1CCCCC1 : -15%
VDR inh, COc1ccc(NC(=O)C23CC4CC(C2)CC(n2cnc(Br)n2)(C4)C3)c(OC)c1 : -6%
VDR inh, Cc1ccc(NC(=O)C(C)OC(=O)/C=C/c2ccccc2)cc1S(=O)(=O)N1CCOCC1 (configuration not stated) : 17%

Other results
SMILES	VDR inh
COCCNC(=O)c1ccc(CS(=O)(=O)c2c(Cl)cccc2Cl)o1	-10%
NC(=O)Cn1nnc(-c2ccccc2NC(=O)c2cnccn2)n1	0%
O=C(NC(c1ccccc1)c1c(O)ccc2ccccc12)c1ccccc1Cl (configuration not stated)	3%
Cc1ccc2c(=O)c(C(=O)c3ccccc3)cn(CC(=O)NCc3ccccc3)c2n1	13%
C/C(CC(=O)Nc1ccc2ccccc2c1)=N\NC(=O)c1ccc(O)c(O)c1	6%
